HNF4A DNA FP = change in binding of human HNF4A to DNA, primary screen, biochemical, fluorescence polarization, FITC-DNA; Hepatocyte nuclear factor 4-alpha (Homo sapiens), P41235; 1 h; activity change, % at 10 µM; 0.3% of 360,000 active; AID 1224865, 2016; in the data active = activity change above about 30%, passing the limit was not always enough;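 also: controls were the assay level and a saturating level of protein; the project sought stronger binding though the title names inhibitors; some compounds called inactive have numbers as strong as hits; positive values seem to mean higher polarization but the record does not say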
Target sequence (P41235 whole entry, looked up): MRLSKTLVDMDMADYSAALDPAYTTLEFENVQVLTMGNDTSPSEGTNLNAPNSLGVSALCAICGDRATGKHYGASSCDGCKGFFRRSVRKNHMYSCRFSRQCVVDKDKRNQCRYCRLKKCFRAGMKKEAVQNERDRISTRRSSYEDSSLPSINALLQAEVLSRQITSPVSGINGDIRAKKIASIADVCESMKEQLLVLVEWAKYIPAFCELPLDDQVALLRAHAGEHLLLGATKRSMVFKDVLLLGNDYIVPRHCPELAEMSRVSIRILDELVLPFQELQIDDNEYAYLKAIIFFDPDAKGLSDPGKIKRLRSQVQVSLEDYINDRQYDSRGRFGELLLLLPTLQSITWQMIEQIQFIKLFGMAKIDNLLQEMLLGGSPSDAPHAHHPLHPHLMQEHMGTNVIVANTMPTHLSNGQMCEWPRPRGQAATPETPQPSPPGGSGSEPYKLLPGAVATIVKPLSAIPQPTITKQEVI
Vif A3G = inhibitors of Vif binding to APOBEC3G peptide, primary screen, biochemical, TR-FRET, GST-Vif 1-94, biotin-A3G peptide, dose response retest (AID 1117319) | 0.57% of 260,000 active | TR-FRET GST-Vif / biotin-A3G peptide binding; higher % means a stronger effect; test concentration not given here; strong numbers were not always called active | Virion infectivity factor (Human immunodeficiency virus type 1 group M subtype B (isolate … | one-dose inhibition, %; IC50 in µM for titrated hits;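 active = above the screen mean plus three standard deviations and confirmed in dose response; inconclusive = results disagree or hit not tested in dose response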;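 also: Vif residues 1-94 fused to GST binding biotinylated APOBEC3G peptide 110-148; 0% = full assay without inhibitor and 100% = GST in place of GST-Vif; retest series ran down from 100 µM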
E coli growth = E. coli growth inhibition, primary screen, OD600; Escherichia coli growth, 23 h; active compounds read low; OD600 absorbance (concentration not given with the values); 0.21% of 330,000 active; AID 1053175, 2014;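 active = OD600 absorbance below the run mean of sample wells minus 3.6 SD, in any replicate, cut at about 0.56 in these data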;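 also: stock transfer was 300 nL into about 60 µL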
AF4-AF9 inh = inhibitors of AF4 peptide binding to AF9, primary screen, biochemical, AlphaScreen, biotin-AF4 peptide, FLAG-AF9, single point; 0.47% of 350,000 active; AID 651704, 2012; inhibition, % at 10 µM; Protein AF-9 (Homo sapiens), P42568;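 active = every replicate reaching a set inhibition limit, whatever the replicate mean, cut at about 25% in these data; inconclusive = mean inhibition reaches that limit but some replicates miss it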;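 also: 0% = plate neutral control median and 100% = total signal loss; the record names both 10 and 1 µM as test concentration; the first replicate is given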
FGF22 binding = binders of human FGF22 protein, primary screen, FGF22 synaptogenesis inhibitor project, biophysical, thermal shift, single point. 1.5% of 340,000 active. calls only at 9.99 µM. recombinant FGF22 thermal shift, SYPRO orange fluorescence; percent of sucrose octasulfate shift, DMSO zero;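 active = melting point raised past a set limit in the mean and every replicate; inconclusive = no clear call; three in four hits are not shown here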
Target sequence (Q9HCT0 whole entry, looked up): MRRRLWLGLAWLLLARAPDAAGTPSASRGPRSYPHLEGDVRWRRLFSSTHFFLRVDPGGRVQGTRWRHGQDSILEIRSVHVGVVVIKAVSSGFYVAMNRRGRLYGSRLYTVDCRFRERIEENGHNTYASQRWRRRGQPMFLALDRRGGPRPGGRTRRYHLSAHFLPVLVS
UCH37 DUB inh = inhibitors of human UCH37 deubiquitinase, primary screen, biochemical, Ub-AMC cleavage, fluorescence | Ubiquitin carboxyl-terminal hydrolase isozyme L5 (Homo sapiens), Q9Y5K5 | purified proteasome/UCH37 | inhibition, % (test concentration not listed) | 0.33% of 330,000 active;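 active = mean of two replicates above 20%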;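 also: 0% = compound-free wells with enzyme and 100% = wells lacking proteasome; stock transfer was 100 nL into about 20 µL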
Target sequence (Q9Y5K5 whole entry, looked up): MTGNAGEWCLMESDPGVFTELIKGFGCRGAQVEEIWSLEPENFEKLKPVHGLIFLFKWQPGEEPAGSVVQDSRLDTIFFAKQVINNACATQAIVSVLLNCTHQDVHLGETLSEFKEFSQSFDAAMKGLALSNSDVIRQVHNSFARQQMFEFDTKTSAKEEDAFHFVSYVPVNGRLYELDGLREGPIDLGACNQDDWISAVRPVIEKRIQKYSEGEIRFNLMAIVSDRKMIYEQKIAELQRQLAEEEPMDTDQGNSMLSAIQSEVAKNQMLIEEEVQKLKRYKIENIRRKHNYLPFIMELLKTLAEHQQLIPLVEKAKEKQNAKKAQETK
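Material: human UCH37 enzyme supplied as purified proteasome complex / Amount: 0.15 nM proteasome as dispensed / Buffer or medium: pH 7.4 Tris-HCl (50 mM) with ovalbumin, ATP-MgCl2, DTT / Times: preincubation 30 min, reaction 25 min, room temperature / Technique: AMC fluorescence from Ub-AMC cleavage, excitation 355 nm, emission 460 nm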
RanGTP-Imp inh = inhibitors of RanGTP-importin-beta interaction, primary screen, biochemical, FRET, CFP-Ran, YFP-importin-beta, homogeneous | cell-free CFP-Ran/YFP-importin-beta FRET ratio | inhibition, % (concentration not given with the values) | 1.1% of 300,000 active;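 active = most replicates above 15%; inconclusive = exactly half above 15%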;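 also: 0% = DMSO wells and 100% = Ran loaded with GDP instead of GTP; wells of about 40 µL received 100 nL stock; the first replicate is given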
* hit, by the source's call; i = inactive; ? = inconclusive; . = no result given; & = joins results of further samples.

Structure	Vif A3G	UCH37 DUB inh	E coli growth	AF4-AF9 inh	FGF22 binding	RanGTP-Imp inh	HNF4A DNA FP
CCN1CCN(C(=O)Cc2c(C)n(C(=O)c3ccc(Cl)cc3)c3ccc(OC)cc23)CC1	18%	1.6	0.69	14	i	4.9	1.1
CCN(CC)C(=O)c1ccc(NC(=O)COc2ccc([N+](=O)[O-])cc2Cl)cc1	11%	.	.	.	.	0.3	1.3
CC(C)Sc1nnc(OC(=O)N(C)C)n1-c1ccccc1	-3%	2.0	0.66	0.5	i	-5.6	1.2
O=S1(=O)NCC2(CC2)CN1Cc1ccccc1	.	.	.	-1.2	i	.	6.4
CSCCC(c1nnnn1-c1c(C)cccc1C)N1CCC2(CC1)C(=O)NCN2c1ccccc1 (stereo unspecified)	.	.	.	7.0	i	.	-6.8
COc1nc2ccccc2c(=O)n1-c1ccc(C)cc1	-6%	2.8	0.7	.	.	-3.7	2.3
CCN(CC)CCNC(=O)c1c(O)c2ccccc2n(Cc2ccccc2)c1=O	-5%&4%	0.1	0.69	.	.	-1.0	0.8
ClCCN(CCCl)c1ccc(C=Cc2ccncn2)cc1	.	-52	0.66	-4.2	i	.	31
O=C(c1ccco1)c1cn(Cc2ccccc2)c2ccccc12	71%	-1.8	0.71	.	.	3.7	-0.2
CCN(CC)c1ccc(N=Cc2c(O)n(Cc3ccco3)c(=O)[nH]c2=O)cc1	21%	2.0	0.69	-1.9	i	-35	102
Cc1cc(C)cc(OCCOc2cccc(C=C3C(=O)NC(=O)NC3=O)c2)c1	.	9.3	0.64	-0.5	i	0.1	-3.3
Cc1ccccc1-n1c(O)c(C=Nc2ccc3c(c2)OCO3)c(=O)[nH]c1=O	12%	4.5	0.66	.	.	-2.8	-0.3
CC(C)c1ccc(N2C(=O)CC(=O)NC2=O)cc1	-3%	2.3	0.69	-9.2	i	-2.5	9.9
NP(=O)(OCC(F)(F)F)Oc1ccccc1 (stereo unspecified)	.	3.3	0.71	.	.	5.9	-2.3
O=C1NC(=O)N(CCC2=CCCCC2)C(=O)/C1=C\c1cccs1	24%	4.4	0.72	-1.0	i	-4.2	-3.9
Cc1cccc(-n2c(O)c(/C=N/NC(=O)c3ccncc3)c(=O)[nH]c2=O)c1	.	-19	0.71	4.1	i	-1.9	-3.4
CN1CCN(C(=O)COc2ccc(N(C)S(=O)(=O)c3ccc(F)cc3)cc2)CC1	11%	-1.4	0.68	-1.2	i	?	3.6
CCOC(=O)C1=C(N)Oc2cc(C)oc(=O)c2C12C(=O)N1c3c(cc(OC)cc32)C(C)=CC1(C)C (stereo unspecified)	-2%&-1%	4.0	0.68	.	.	-1.3	-1.5
COc1ccc(CCNCc2ccc(C)s2)cc1OC	>100µM*	0.1	0.67	0.1	i	3.8	0.9
CN1C(=O)C(=Cc2ccc(N3CCOCC3)o2)C(=O)N(C)C1=S	?	12	0.72	-0.1	i	2.3	87*
Cc1cc(OC(=O)N(C)C)nc(SCc2c(Cl)cccc2Cl)n1	-13%	6.5	0.66	.	i	2.9	-0.8
C1=NCCc2c1[nH]c1ccccc21	.	6.8	0.59	7.5	.	-3.2	1.6
CC1=CC(=O)C2=C(C)CC(O)C3C(C)C(=O)OC3C12 (stereo unspecified)	9%	4.2	0.69&0.71	.	.	3.2	1.9
C=C[C@@]12CN(C)[C@H]3[C@H]1[C@@]1(C(=O)Nc4ccccc41)C1CC2[C@@H]3CO1	.	1.4	.	-5.6	i	.	-2.6
CC(=O)c1ccc(NC(=O)N2C[C@H]3C[C@@H](C2)c2cccc(=O)n2C3)cc1	.	1.4	0.78	-2.5	i	-5.2	-0.2
COc1cccc(OCC(=O)N2CCN(C)CC2)c1	4%	3.4	0.67	.	.	0.1	3.2
CCOCCCNC(=O)C1c2cc(OC)c(OC)cc2C(=O)N2CCCCC12 (stereo unspecified)	-9%	1.4	0.69	?	i	-1.3	-4.4
CCC(=NCc1ccco1)c1c(O)n(C2CCCCC2)c(=O)[nH]c1=O	-4%	0.1	0.72	.	.	0.5	-1.1
Cc1ccc(OC(=O)N(C)C[C@@H]2OCc3cnnn3CCCC(=O)N([C@@H](C)CO)C[C@H]2C)cc1	.	.	.	-1.7&0.3&1.5	i	.	0.6
CC1=CC(=C2C(=O)NC(=S)NC2=O)C=C(C(F)(F)F)N1C	13%	6.9	0.7	.	.	-0.8	2.1
COc1cc2c(c(OC)c1OC)-c1ccc(O)c(=O)cc1[C@@H](N)CC2	.	0.8	0.66	48*	i	.	-1.2
C=C1C2[C@H](OC(C)=O)[C@@H]3CC(=O)[C@]4(C)OC[C@@]3(C)[C@@]4(O)[C@@H](OC(C)=O)[C@H](OC(C)=O)[C@@]2(COC(=O)c2ccccc2)[C@@H](OC(C)=O)C[C@@H]1O (stereo partly specified)	.	3.0	0.79	5.0	i	1.1	-1.3
CC1=C(C)CC2(C(=O)NC(=O)NC2=O)C(C)C1 (stereo unspecified)	-5%	.	.	-3.1	i	.	0.9
CCC(=O)OC1(c2ccccc2)CCN(C)CC1C (stereo unspecified)	10%	-2.1	0.68	-0.8	i	2.4	1.4
COC(=O)C1=C(c2cc3ccccc3s2)C[C@@H]2CC[C@H]1N2C(=O)NCCNC(C)=O	.	-0.4	.	.	.	0.8	5.2
C[N+](C)(C)CC1CCCC1=O (stereo unspecified)	-4%	.	.	0.9	i	.	1.6
COC(=O)C1=C(c2ccc(F)cc2OCc2ccccc2)C[C@@H]2CC[C@H]1N2C(=O)NCc1ccc([N+](=O)[O-])cc1	.	-1.2	.	5.5	i	.	-0.7
O=C(Cc1ccccc1)N1CCN(C2CCCC2)CC1	?	2.5	0.7	.	.	?	0.9
CC(=O)N1Cc2cnnn2-c2ccccc2C1C#N (stereo unspecified)	0%	.	.	-3.4	i	.	0.1
COc1ccc(CCN)cc1S(N)(=O)=O	.	.	.	0.7	i	.	-3.3
C=C1C(=O)O[C@H]2[C@H]1[C@H](OC(=O)CC(=O)O[C@@H]1C[C@@H](C)[C@@H]3C=CC(=O)[C@@]3(C)[C@H]3OC(=O)C(=C)[C@H]13)C[C@@H](C)[C@H]1C=CC(=O)[C@]12C	26%	-0.3	.	-11	i	2.0	-3.6
COC(=O)C1=C(c2ccc(F)cc2OCc2ccccc2)C[C@@H]2CC[C@H]1N2C(=O)NCc1ccc(C)cc1	.	2.5	.	1.8	i	.	0.3
COc1ccccc1CNC(=O)CCC(=O)N1C[C@H]2C[C@@H](C1)c1cccc(=O)n1C2	.	1.8	0.71	-0.1	i	-0.1	4.2
C[C@]12CCC3C(CC[C@H]4C[C@@H](O)CC[C@]34C)[C@H]1CC[C@H]2O (stereo partly specified)	1%	0.7	0.68	1.5	i	.	-5.2
S=P(NC1CCCCC1)(N1CC1)N1CC1	-10%	4.3	0.63	-5.0	i	2.1	-1.4
CN1CCN(S(=O)(=O)c2ccc(Cl)nc2)CC1	.	4.8	0.64	.	.	-3.8	0.8
CCC(=O)N1N=C(c2c(O)n(CCc3ccccc3)c(=O)[nH]c2=O)CC1c1ccc(OC)c(OC)c1 (stereo unspecified)	-6%	1.5	0.63	.	i	0.5	1.2
O=P1(Oc2ccccc2)OCCCS1 (stereo unspecified)	-9%	3.9	0.65	2.6	i	7.5	1.7
C=CCn1c(O)c(/C(C)=N/N2CCN(C)CC2)c(=O)[nH]c1=O	15%	1.5	0.64	-1.1	i	-1.1	-4.2
CC(=O)OC1N=C(c2ccccc2Cl)c2cc(Br)ccc2NC1=O (stereo unspecified)	15%	4.5	0.66	.	i	3.8	0.5
COc1ccc(CN2CCN(C(=O)Cc3ccccc3)CC2)cc1Br	.	6.6	0.69	-1.0	i	-1.5	2.9
COc1ccc(OC)c(N=Cc2c(O)n(Cc3ccccc3)c(=S)[nH]c2=O)c1	.	-60	0.68	-11	i	-5.3	11
O=C(NCc1cccnc1)NC1CCCCC1	0%	-1.6	0.68	.	.	1.3	-0.4
CCP(=S)(CC)c1ccc(N(C)C)cc1	-1%	0.7	0.68	-0.9	i	-2.3	2.4
COc1ccc(C2=NCc3nnc(C)n3-c3ccc(Cl)cc32)cc1Cl	-2%	5.2	0.74	.	.	1.3	2.0
Cn1cc(/C=C2\C(=O)NC(=O)N(c3ccccc3)C2=O)c2ccccc21	-158%	.	.	-1.9	i	1.9	154
O=c1c2ccccc2nc(/C=C\c2ccccc2[N+](=O)[O-])n1-c1ccccc1O	1%	4.2	0.67	12	i	-0.3	-1.0
O=C1C=C(N2CC2)c2ccccc2C1=O	11µM*	.	.	0.0	i	.	-1.3
CC1N(O)C2CCCCCC2N1O (stereo unspecified)	5%	5.5	0.78	.	.	1.9	-0.8
CCN(CCNc1ccc([N+](=O)[O-])c2cccnc12)S(=O)(=O)c1ccc(Cl)cc1	-5%	6.2	0.77	.	.	-4.9	3.5

Later entries
Structure	Vif A3G	UCH37 DUB inh	E coli growth	AF4-AF9 inh	FGF22 binding	RanGTP-Imp inh	HNF4A DNA FP
CC(=NCCCn1ccnc1)c1c(O)n(C2CCCCC2)c(=O)[nH]c1=O	8%	2.9	0.59	-3.3	i	0.9	1.3
CCOC(=O)c1c(C)[nH]c(C(=O)C(Cc2ccccc2)N(C)C)c1C (stereo unspecified)	3%	3.6	0.62	.	.	-1.6	2.9
O=C(c1ccc2c(c1)OCO2)C1CCCN(Cc2ccc(F)c(F)c2)C1 (stereo unspecified)	.	4.9	0.67	1.0	i	-1.6	-1.0
CCCCn1c(=O)c(C(=O)Nc2ccccc2Cl)c(O)c2ccccc21	.	-82	0.73	-6.3	i	-0.3	1.1
CSCCC(N=Cc1c(O)n(-c2ccc(Cl)cc2)c(=O)[nH]c1=O)C(=O)OC(C)(C)C (stereo unspecified)	-2%	0.9	0.73	.	.	-4.9	-1.3
COc1ccc(OC)c(C(O)C(C)N)c1 (stereo unspecified)	13%	2.5	0.71	-2.8	i	.	-2.1
CCc1ccc(-n2c(O)c(/C=N/NC(=O)c3ccncc3)c(=O)[nH]c2=O)cc1	.	-26	0.71	.	.	-2.0	3.1
ON1C2CCCCC2N(O)C1c1ccccc1 (stereo unspecified)	-1%	-1.5	0.68	-6.7	i	-0.7	2.1
CC(=O)Nc1ccccc1C(=O)OCC(=O)c1cccc2ccccc12	-11%	4.6	0.73	.	.	?	3.3
NC(=O)c1ccc(OCCC(O)N2CC=C(c3ccc(F)cc3)CC2)cc1 (stereo unspecified)	.	0.6	0.67	-18	i	.	-1.3
Cc1cccc(N2C(=O)/C(=C/N3CCN(C(=O)c4ccco4)CC3)C(=O)NC2=S)c1	8%	3.3	.	.	.	1.2	8.9
O=C(Nc1ccc(C(F)(F)F)cc1)OC1CN2CCC1CC2 (stereo unspecified)	?	8.3	0.63	2.5	i	?	-2.0

Full records, quoted from the list.
`CC1=CC(=O)C2=C(C)CC(O)C3C(C)C(=O)OC3C12` (stereo unspecified) as listed: Vif A3G = 9%; UCH37 DUB inh = 4.2; E coli growth = 0.69&0.71; AF4-AF9 inh = .; FGF22 binding = .; RanGTP-Imp inh = 3.2; HNF4A DNA FP = 1.9
`CC(C)Sc1nnc(OC(=O)N(C)C)n1-c1ccccc1` as listed: Vif A3G = -3%; UCH37 DUB inh = 2.0; E coli growth = 0.66; AF4-AF9 inh = 0.5; FGF22 binding = i; RanGTP-Imp inh = -5.6; HNF4A DNA FP = 1.2

Assay outcomes deposited in PubChem by several laboratories.

These rows are one share of the data, so the mix of outcomes need not match the whole.
